High-throughput results as filed in PubChem BioAssay.
Bm FixLJ act: B. multivorans fixK reporter activation | B. multivorans fixK-promoter GFP reporter, 18 h; stronger effect = higher value | z-score (test concentration not listed) | hit rate 0.3% among 29,000 | AID 1918990;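 active = replicate mean overnight rise in green fluorescent reporter signal, 3 or more SD over negative controls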;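 note: score is relative to vehicle wells of the plate; 300 nL library stock went into each well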
The depositor's hits bear a star. A portion of the library; the hit share may differ from the screen's.

For O=C(CCc1ccc(F)c(F)c1)N1CCC2OCc3cnnn3C2C1 (stereo not drawn) the results were Bm FixLJ act -0.88.
`Cc1sc2nc(CCNC(=O)CCc3nc4ccc(F)cc4[nH]3)[nH]c(=O)c2c1C` gave Bm FixLJ act 1.2.
CCOc1ccc(NC(=O)Cn2c(C)ccc(C#N)c2=O)cc1 was read as Bm FixLJ act 0.57.
O=C(Nc1ccc(F)c(F)c1)C1CCCN(S(=O)(=O)c2cccc3nonc23)C1 (stereo not drawn) was read as Bm FixLJ act -0.55.
For CCOC(=O)C1CCCN(C(=O)c2ccc3c(c2)N(Cc2ccc(Cl)cc2)C(=O)c2ccccc2S3=O)C1 (stereo not drawn) the results were Bm FixLJ act -0.73.
`Cc1ccc(N=CN(C)C=Nc2ccc(C)cc2C)c(C)c1` gave Bm FixLJ act -0.55.
For COc1cc(OC)cc(-c2nc3n(n2)C(c2ccccc2F)C(C(=O)Nc2cccnc2)=C(C)N3)c1 (stereo not drawn) the results were Bm FixLJ act -2.4.
`CCCc1ccc(OCC(=O)Nc2sc3c(c2C(=O)OC)CCCCC3)cc1` gave Bm FixLJ act -0.18.
Screening CN(CCC12CC3CC(CC(C3)C1)C2)C(=O)c1nn(C)c2c1CC(=O)CC2 returned Bm FixLJ act 1.73.
Screening Cc1cc(S(=O)(=O)NCCn2cnc(C)c2C)c(C)s1 returned Bm FixLJ act -0.94.
CCC(C)NC(=O)c1sc2nc(C)c(C(=O)Nc3ccc(C)cc3C)c(-c3ccc(Cl)cc3)c2c1N (stereo not drawn) was read as Bm FixLJ act 0.27.
For CCC(=O)N1CCc2cc(Br)cc(S(=O)(=O)N3CCC(C(=O)N(CC)CC)CC3)c21 the results were Bm FixLJ act -2.19.
`Cc1ccccc1Nc1cc(C(=O)NC2CCCCC2)c2ccccc2n1` gave Bm FixLJ act 0.83.
Screening CC(=O)Nc1ccc(S(=O)(=O)c2ccc(NC(C)=O)cc2)cc1 returned Bm FixLJ act -1.63.
CCN1CC(NC(=O)c2coc(COc3cccc(F)c3)n2)CC1=O (stereo not drawn) was read as Bm FixLJ act -1.71.
CC1CN(c2cccc(Cl)c2)C(=O)CN1C(=O)c1ccc(=O)[nH]c1 (stereo not drawn) was read as Bm FixLJ act 0.49.
`O=C(NC1CCCN(c2cnccn2)C1)c1n[nH]c2ccccc12` (stereo not drawn) gave Bm FixLJ act 0.7.
For CCCN(C(=O)Cn1ncc2c1-c1ccccc1OC2)c1cccc(C)c1 the results were Bm FixLJ act -0.06.
`COc1ccccc1N1CCN(Cc2cc(COC(C)C)c3cccnc3c2O)CC1` gave Bm FixLJ act 1.28.
`CCOc1ccc(NC(=O)Cn2c(CCC(=O)O)ccc2-c2ccc(C)cc2)cc1` gave Bm FixLJ act -1.92.
Cc1ccc(C2(C(=O)NC3COCC3Cc3ccncc3)CC2)cc1 (stereo not drawn) was read as Bm FixLJ act -0.64.
Screening Cc1ccccc1NC(=O)[C@H](CSCc1ccccc1)N1Cc2ccccc2C1=O returned Bm FixLJ act 0.72.
For O=C(NCc1nc2c(s1)CCCC2)N1CC(c2nc3ccccc3[nH]2)C1 the results were Bm FixLJ act -0.1.
N#Cc1ccc(-c2cccs2)nc1SCc1c(F)cccc1Cl was read as Bm FixLJ act -4.21.
Cc1ccc(C(=O)Nc2cc3nn(-c4ccccc4)nc3cc2Cl)c(C)c1 was read as Bm FixLJ act -1.55.
Screening Cc1ccc(-n2cnnn2)cc1NC(=O)N(C)Cc1noc(C2CCCC2)n1 returned Bm FixLJ act 0.74.
Screening O=C1CCC2(CCCN(C(=O)c3n[nH]c4c3CCCC4)C2)CN1CC1CC1 (stereo not drawn) returned Bm FixLJ act -0.52.
`COc1ccccc1NC(=O)Cn1cnc2ccc(S(=O)(=O)N3CCC(C)CC3)cc2c1=O` gave Bm FixLJ act -1.52.
For COCCN1CCN(C(=O)c2cnn(-c3ccccc3OC)c2)CC1 the results were Bm FixLJ act 0.33.
Screening Cc1ccc(NC(=O)Cn2c(CCC(=O)O)ccc2-c2ccc(Cl)cc2)cc1 returned Bm FixLJ act -1.55.
CN(C)c1ccc(CN(CC2CCCO2)C(=O)c2ccc(Br)cc2)cc1 (stereo not drawn) was read as Bm FixLJ act -0.34.
Cc1ccc(-n2c(=O)c3c(cnn3C)n(CC(=O)Nc3ccccc3C)c2=O)cc1 was read as Bm FixLJ act 0.38.
Screening Cc1ccc(CN(C(=O)COc2ccc(C(C)(C)C)cc2)C2CCS(=O)(=O)C2)o1 (stereo not drawn) returned Bm FixLJ act -1.45.
For O=C(c1cccc(OC(F)F)c1)N1CCn2nc(C(O)C3CC3)cc2C1 (stereo not drawn) the results were Bm FixLJ act -1.2.
Screening Cc1cccc(NC(=O)c2oc3ccccc3c2NC(=O)Cc2coc3ccc(C(C)C)cc23)c1 returned Bm FixLJ act -0.77.
COc1ccccc1NC(=O)CN(C)S(=O)(=O)c1cccc2cccnc12 was read as Bm FixLJ act 0.78.
Screening COC1CN(C)CC1NS(=O)(=O)c1cc(Cl)c(Cl)s1 (stereo not drawn) returned Bm FixLJ act -0.59.
Screening Cc1ccc2oc(=O)c3cnn(CC(=O)NCc4ccccc4Cl)c3c2c1 returned Bm FixLJ act -0.34.
CSc1nc2sc3c(c2c(=O)n1-c1ccc(F)c(Cl)c1)CCN(C(C)=O)C3 was read as Bm FixLJ act -0.16.
For CCCc1cnc(C)nc1N1CC2CCC(C1)N(Cc1cscn1)C2=O (stereo not drawn) the results were Bm FixLJ act -1.34.
Screening COc1cc2c(=O)c(S(=O)(=O)c3ccc(C)cc3)cn(Cc3cccc(C)c3)c2cc1OC returned Bm FixLJ act 1.49.
Screening COC(=O)c1ccc(-c2ccc(C(=O)NC3CCCNC3=O)cc2)c(O)c1 (stereo not drawn) returned Bm FixLJ act -1.55.
CCOC(=O)c1c(NC(=O)Nc2ccc(F)cc2)sc(C(=O)N(C)C)c1C was read as Bm FixLJ act -1.01.
Screening COC1CCC[C@@]12CCCN(C(=O)Cn1c(=O)oc3ccccc31)C2 (stereo partly drawn) returned Bm FixLJ act -1.53.
`CCCCn1c2ccccc2c2nnc(SCC(=O)Nc3ccc(NC(C)=O)cc3)nc21` gave Bm FixLJ act -2.23.

Grouped by structure, those above with bromine (2)
For CCC(=O)N1CCc2cc(Br)cc(S(=O)(=O)N3CCC(C(=O)N(CC)CC)CC3)c21 the results were Bm FixLJ act -2.19.
CN(C)c1ccc(CN(CC2CCCO2)C(=O)c2ccc(Br)cc2)cc1 (stereo not drawn) was read as Bm FixLJ act -0.34.

Next section.
`Cc1nc(CN2CCCN(S(=O)(=O)N3CCOCC3)CC2)n(C)c1C` gave Bm FixLJ act 0.74.
`Nc1nc(CC(=O)NC2CCCc3nc(-c4ccccc4)ncc32)cc(=O)[nH]1` (stereo not drawn) gave Bm FixLJ act -0.18.
Screening CCOC(=O)c1c(-c2ccccc2)oc2cc(Br)c(OCc3ccccc3)cc12 returned Bm FixLJ act -1.53.
For Cc1ccc(C)c(OCC(=O)Nc2ccc(S(=O)(=O)Nc3onc(C)c3C)cc2)c1C the results were Bm FixLJ act 1.12.
`Cc1nc2cc(OCc3nc(C(=O)N4C5CCC4CC(O)C5)co3)ccc2s1` (stereo not drawn) gave Bm FixLJ act 0.25.
`CCn1cc(C(=O)N2CCN(c3ccccc3)CC2)c(=O)c2cc(S(=O)(=O)N(C)C)ccc21` gave Bm FixLJ act -0.32.
`O=S(=O)(NC(c1cnc2ccccc2c1)C1CC(O)C1)N1CCCCC1` (stereo not drawn) gave Bm FixLJ act -1.95.
Cc1n[nH]c(C)c1CCN(C)Cc1nnc(C2CC(N)C2)n1C (stereo not drawn) was read as Bm FixLJ act 0.38.
`Cc1cccc(N2CCN(S(=O)(=O)c3cc(Cl)ccc3Cl)CC2)c1C` gave Bm FixLJ act 0.22.
For COc1ccc(Cc2nc(C(C)N)n(CC(=O)NC3CCNC3)n2)cc1OC (stereo not drawn) the results were Bm FixLJ act 1.14.
Screening CC(=O)NC1CCN(C(=O)c2ccc3nc(-c4ccccc4)cn3c2)C1 (stereo not drawn) returned Bm FixLJ act -0.14.
Screening CC(C)c1ccc(NC(=O)C2CCCN(S(=O)(=O)c3cccc4cccnc34)C2)cc1 (stereo not drawn) returned Bm FixLJ act -0.84.
`COc1ccccc1N1CCN(c2nc3ccccc3n3cnnc23)CC1` gave Bm FixLJ act -2.17.
Screening Cc1nn(CC(=O)NC(C)c2nncn2C(C)C)c(=O)n1Cc1ccccc1 (stereo not drawn) returned Bm FixLJ act -1.55.
`O=C(CN1C(=O)CCSc2ccccc21)Nc1ccc(C(F)(F)F)cc1` gave Bm FixLJ act -3.78.
Cc1cccc(-c2nc(CSCC(=O)N3CCN(c4ccccc4)CC3)c(C)o2)c1 was read as Bm FixLJ act -2.03.
Screening O=C(c1ccc(-n2cccn2)cc1)N1CCCN(c2nc3ccccc3s2)CC1 returned Bm FixLJ act -0.67.
CCc1cccc(CC)c1NC(=O)C(CC)n1nc(C)n2c(cc3cc(C)ccc32)c1=O (stereo not drawn) was read as Bm FixLJ act -3.35.
For CC(C)=CCCN1CCC(NC(=O)c2cc(C)on2)C(O)C1 (stereo not drawn) the results were Bm FixLJ act 0.46.
Cc1[nH]c2ccccc2c1C1N2CC3(C)CN1CC(C)(C2)C3=O (stereo not drawn) was read as Bm FixLJ act -1.55.
For CCSc1ncc(Cl)c(C(=O)Nc2cc(C)ccc2C)n1 the results were Bm FixLJ act -1.62.
Screening CCn1cc(C(=O)NCCc2ccccc2)c(=O)c2cc(S(=O)(=O)N3CCc4ccccc4C3)ccc21 returned Bm FixLJ act 0.13.
For CCc1ccc(C(=O)c2cn(CC(=O)Nc3ccc(Cl)cc3)c3cc4c(cc3c2=O)OCO4)cc1 the results were Bm FixLJ act -0.21.
O=C(COCc1cc(-c2ccc(F)cc2)on1)Nc1cccc(C(F)(F)F)c1 was read as Bm FixLJ act 0.72.
For c1ccc(CCc2noc(-c3ccc(N4CCCNCC4)nc3)n2)cc1 the results were Bm FixLJ act 0.69.
Cn1ccc(NC(=O)CN2CC(O)C(Cc3ccccn3)C2)n1 (stereo not drawn) was read as Bm FixLJ act 0.78.
Screening Cc1c(CC(=O)NCc2ccccc2)c(=O)oc2c(C)c(O)ccc12 returned Bm FixLJ act -0.41.
`CSCCC(NC(=O)N(C)Cc1cnn(-c2cccc(C)c2)c1)C(=O)O` (stereo not drawn) gave Bm FixLJ act -1.66.
Screening Cc1nc(CCNC(=O)C2(c3ccccc3)CCCCC2)cc(=O)[nH]1 returned Bm FixLJ act 0.19.
For COc1ccc(-n2c(=O)c3c(C)c(C)sc3n(CC(=O)NCc3ccc(C)cc3)c2=O)c(OC)c1 the results were Bm FixLJ act -2.29.
COc1ccc(-c2oc3ncn4nc(COc5ccccc5C)nc4c3c2-c2ccc(OC)cc2)cc1 was read as Bm FixLJ act -0.09.
For O=C(CCc1nnc2n(Cc3ccccc3Cl)c(=O)c3ccccc3n12)Nc1ccccc1 the results were Bm FixLJ act 0.06.
Screening Cc1ccc2nc(SCc3nc(-c4ccc(Cl)cc4)no3)[nH]c2c1 returned Bm FixLJ act -1.12.
Screening CC(C)(NC(=O)c1cccs1)C(=O)NCc1cnc2cnccn12 returned Bm FixLJ act 0.52.
COc1ccc(-n2nc(C(=O)NCc3ccc(F)cc3)c3c4ccccc4n(C)c3c2=O)cc1 was read as Bm FixLJ act -0.27.
`CN(C)Cc1nnc(C2CC(NC(=O)C3CCOCC3)C2)n1C` (stereo not drawn) gave Bm FixLJ act 0.57.
Screening O=C(c1cnc(-c2cccs2)nc1)N1CC(c2ccccn2)C1 returned Bm FixLJ act 1.2.
Screening CCOC(=O)c1cc(OC(=O)c2ccc(OC)cc2)n(-c2ccccc2)n1 returned Bm FixLJ act -1.9.
Screening Cc1ccccc1CCNC(=O)c1ccc(NC(=O)N2CC(C)Sc3ccccc32)cc1 (stereo not drawn) returned Bm FixLJ act -3.
`O=C(c1cncc(NCCc2cccc(C(F)(F)F)c2)n1)N1CCCC1` gave Bm FixLJ act 0.83.
CCC1CCCCN1CCCNC(=O)c1ccc2c(c1)N(Cc1ccc(Cl)cc1)C(=O)c1ccccc1S2(=O)=O (stereo not drawn) was read as Bm FixLJ act -0.7.
`COc1cccc(NC(=O)Cn2cc(C(=O)c3ccccc3)c3ccccc32)c1` gave Bm FixLJ act 0.79.
Screening Cc1ccc(-n2ncc(C(=O)NCCc3c[nH]c4ccccc34)c2C2CCN(C(=O)OC(C)(C)C)CC2)cc1C returned Bm FixLJ act -1.12.
For COc1cccc(NC(=O)Cn2c(=O)n(CCC(=O)NCCc3ccc(Cl)cc3)c(=O)c3ccccc32)c1 the results were Bm FixLJ act -3.18.
Screening COc1ccc(-c2nnn3c2nc(N2CCCC(C)C2)c2ccccc23)cc1 (stereo not drawn) returned Bm FixLJ act 0.39.
For CCOC(=O)[C@@]12CCC(N3CCOCC3)C[C@H]1CCN(C(=O)c1cccc(OC)c1)C2 (stereo partly drawn) the results were Bm FixLJ act -0.41.

Compounds from the list above that contain an NH in an aromatic ring:
`Cc1sc2nc(CCNC(=O)CCc3nc4ccc(F)cc4[nH]3)[nH]c(=O)c2c1C` gave Bm FixLJ act 1.2.
CC1CN(c2cccc(Cl)c2)C(=O)CN1C(=O)c1ccc(=O)[nH]c1 (stereo not drawn) was read as Bm FixLJ act 0.49.
`O=C(NC1CCCN(c2cnccn2)C1)c1n[nH]c2ccccc12` (stereo not drawn) gave Bm FixLJ act 0.7.
For O=C(NCc1nc2c(s1)CCCC2)N1CC(c2nc3ccccc3[nH]2)C1 the results were Bm FixLJ act -0.1.
Screening O=C1CCC2(CCCN(C(=O)c3n[nH]c4c3CCCC4)C2)CN1CC1CC1 (stereo not drawn) returned Bm FixLJ act -0.52.
`Nc1nc(CC(=O)NC2CCCc3nc(-c4ccccc4)ncc32)cc(=O)[nH]1` (stereo not drawn) gave Bm FixLJ act -0.18.
Cc1n[nH]c(C)c1CCN(C)Cc1nnc(C2CC(N)C2)n1C (stereo not drawn) was read as Bm FixLJ act 0.38.
Cc1[nH]c2ccccc2c1C1N2CC3(C)CN1CC(C)(C2)C3=O (stereo not drawn) was read as Bm FixLJ act -1.55.
Screening Cc1nc(CCNC(=O)C2(c3ccccc3)CCCCC2)cc(=O)[nH]1 returned Bm FixLJ act 0.19.
Screening Cc1ccc2nc(SCc3nc(-c4ccc(Cl)cc4)no3)[nH]c2c1 returned Bm FixLJ act -1.12.
Screening Cc1ccc(-n2ncc(C(=O)NCCc3c[nH]c4ccccc34)c2C2CCN(C(=O)OC(C)(C)C)CC2)cc1C returned Bm FixLJ act -1.12.
